Bioassay records as filed in PubChem.
Env fusion inh: inhibitors of HIV-1 Env-driven cell-cell fusion, primary screen, HeLa-JRFL effector, CEM21 target cells, luciferase | inhibition, % at 12.3 µM | actives 1.1% (n = 360,000);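 active means mean replicate inhibition score of at least 50 and every replicate individually at or above 50; inconclusive means only one of the two criteria met; inactive means mean below 50 and not all replicates reaching 50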;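 further: 0% = plate neutral controls and 100% = maraviroc near 300 nM; one replicate is shown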
PABP FP inh: PABP poly(A) RNA binding inhibitors, primary screen, biochemical, fluorescence polarization, uHTS; Polyadenylate-binding protein 1 (Homo sapiens), P11940; inhibition, % at 35 µM; actives 1% (n = 290,000);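 active means 50% or more with normal probe brightness, or confirmed in later tests; inconclusive means above 50% with abnormal brightness, or retests that disagree; inactive means below 50% or failed in later tests; about a fifth of its hits are not listed in these tables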;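 further: calls also rest on retests at 20 µM and on dose response follow-up; controls were probe without protein and protein plus probe with vehicle; some compounds called inactive have numbers as strong as hits; many hits fall short of the cut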
Rce1 inh: yeast Rce1p protease inhibitors, primary screen, biochemical, fluorescence, cell-free homogeneous. CAAX prenyl protease 2 (Saccharomyces cerevisiae (strain ATCC 204508 / S288c)), Q03530. yeast membranes, quenched prenylated peptide cleavage fluorescence. calls only. actives 0.27% (n = 290,000);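 active means fall in fluorescence gain of 50% or more versus controls, with final raw signal at or below 3038400; inconclusive means same 50% fall but final raw signal above 3038400; inactive means fall in fluorescence gain under 50%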;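 further: plate controls were neutral control wells for no effect and wells lacking membranes for full effect; tested at 10 µM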
Target sequence (Q03530 whole entry, looked up): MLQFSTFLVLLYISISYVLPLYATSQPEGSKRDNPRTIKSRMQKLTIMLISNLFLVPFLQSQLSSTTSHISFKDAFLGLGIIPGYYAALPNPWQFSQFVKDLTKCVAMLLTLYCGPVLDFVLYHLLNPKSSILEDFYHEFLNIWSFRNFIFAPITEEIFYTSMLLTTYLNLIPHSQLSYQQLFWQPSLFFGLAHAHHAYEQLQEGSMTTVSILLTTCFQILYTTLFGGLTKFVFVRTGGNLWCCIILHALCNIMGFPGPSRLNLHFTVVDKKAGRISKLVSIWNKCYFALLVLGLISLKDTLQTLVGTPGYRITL
eIF4H FP inh: human eIF4H binding inhibitors, primary screen, translation initiation inhibitor project, biochemical, uHTS, fluorescence polarization; eIF4H fluorescence polarization binding assay; inhibition, % at 35 µM; actives 0.94% (n = 290,000); AID 2012, 2009;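 active means 50% or more with normal probe brightness, or confirmed in later tests; inconclusive means above 50% with abnormal brightness, or retests that disagree; inactive means below 50% or failed in later tests; about a fifth of its hits are not listed in these tables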;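 further: calls also rest on retests at 20 µM and on dose response follow-up; 0% = protein and probe with vehicle and 100% = probe without protein; strong numbers were not always called active; many hits fall short of the cut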
UUG fidelity: modulators of yeast start codon fidelity, primary screen, whole organism, S. cerevisiae, single point, plate reader; S. cerevisiae UUG-firefly luciferase reporter, luminescence/redox ratio; actives 0.13% (n = 350,000); activity score, % at 18.7 µM;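 active means replicate mean at a twofold rise or more, about +100% in these data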;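 further: firefly luciferase made from a UUG start codon reports start codon fidelity; reporter light over untreated wells divided by growth signal over untreated wells; some hits fall short of that in this replicate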
MT1-MMP act inh: blockers of MT1-MMP proenzyme processing, primary screen, HT1080 RFP-PRO-GFP cells, GFP/RFP fluorescence; Matrix metalloproteinase-14 (Homo sapiens), P50281; actives 0.061% (n = 360,000); GFP/RFP ratio change, % at 20 µM; GFP/RFP ratio fluorescence, overnight; percent of plate control window, DMSO zero;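 active means GFP/RFP ratio change of at least 30% with cell ATP level not reduced by more than half and red fluorescence within 50% of control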; further: strong numbers were not always called active
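Material: RFP-PRO-GFP reporter HT1080 cells. Dosing: single-point 20 µM compound, 1% DMSO. Controls: DMSO and RFP-L50D-GFP cell wells. Timing: cells overnight before dosing, compound overnight, 37 °C, 5% CO2. Measure: GFP/RFP fluorescence ratio.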
CSC inhib: cancer stem cell viability inhibitors, primary screen, luminescence | cancer stem cell-like cells viability | actives 1.1% (n = 300,000) | inhibition, % at 7.5 µM | AID 2717, 2010;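 active means mean at 75% or more and at least half the replicates too; inconclusive means mean and replicates disagree; tested in HMLE shEcad cells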;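 further: 0% = median of negative and 100% = median of positive control wells; the first replicate is given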
PABP FP inh retest: also measured in PABP FP inh; calls as there; inhibition, %; compound at 20 µM; confirmation repeats;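 mean of two retest wells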
MT1-MMP act inh RFP: further read-out of MT1-MMP act inh, marked with its call; RFP signal change, %; measured here: RFP expression control read;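 0 = vehicle wells; hits needed this value within 50% of zero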
An asterisk follows results filed as active; i = inactive; ? = inconclusive; nt = not tested or not shown.

SMILES	Env fusion inh	PABP FP inh	Rce1 inh	eIF4H FP inh	UUG fidelity	MT1-MMP act inh	MT1-MMP act inh RFP	CSC inhib	others
O=S(N1CCc2ccccc21)C12CC3CC(CC(C3)C1)C2 (stereo not given)	5.2	4.2	i	2.1	nt	0.6	-1.9	7.6
Cc1cc(C)c(C)c(S(=O)(=O)NCc2cccnc2)c1C	nt	-0.5	i	3.2	-17.9	0.4	-2.5	nt
Cc1cc2oc(=O)cc(Cn3ccnc3)c2cc1C	-304.1	-1.4	i	3.8	-15.6	-4.5	2.8	-3.6
CC(C)(C)NC(=O)CN(C(=O)Cn1nnc(-c2ccccc2F)n1)c1cccc2c1CCCC2	-112.9	1.8	i	-8.3	0.5	-9.1	-5.7	8.8
BrC(=C\c1ccccc1)/C=N/Nc1nc2ccccc2[nH]1	-27.0	7.4	i	-4.3	-24.9	7.6	-1.1	37.1
Cc1cc(N2C(=O)C(O)=C(C(=O)c3ccco3)C2c2ccc([N+](=O)[O-])cc2)no1 (stereo not given)	21.3	16.4	i	2.1	-14.0	0.3	0.6	0.7
COc1ccc(C2c3ccc4ccccc4c3Oc3ncn(CCO)c(=N)c32)cc1OC (stereo not given)	nt	1.0	i	-5.5	-8.6	0.4	2.2	14.6
OC(CNCc1cccnc1)COc1ccc2ccccc2c1 (stereo not given)	12.8	-15.6	i	-7.6	-6.1	5.3	1.5	-7.7
CC(C)C[C@@]12C(=O)N(c3cccc(F)c3)C(=O)N1[C@H](c1ccc(F)cc1)[C@@H]1C(=O)N(C3CCCCC3)C(=O)[C@@H]12	9.3	nt	i	nt	-6.0	-9.0	-11.0	9.1
Cc1[nH]n(-c2ccccc2)c(=O)c1C=Nc1cnc2ccccc2c1	nt	-14.9	i	1.9	-13.7	2.2	4.4	-6.5
SC(COCc1ccccc1)CN1CCN(Cc2ccc3c(c2)OCO3)CC1 (stereo not given)	nt	-4.9	i	-11.9	nt	2.7	-0.6	34.0
CN(C)c1ccc(C2/C(=C(/O)c3ccccc3)C(=O)C(=O)N2CCCC(=O)O)cc1 (stereo not given)	2.0	2.7	i	-3.8	-3.6	4.3	5.6	-24.5
Nc1nc(N)nc(-c2cc(C(F)(F)F)ccc2Cl)n1	7.7	nt	nt	nt	-12.3	7.9	5.3	-13.1
O=C(Cc1ccc(Cl)cc1)NNC(=O)C(=O)NC1CCCCC1	-17.2	nt	nt	nt	-10.1	2.2	4.6	-0.6
Cc1cccc(OCc2nc3ccccc3c(=O)n2N)c1	-80.8	-3.5	i	10.1	-7.8	-1.7	-3.6	-5.3
Cc1ccc(S(=O)(=O)Nc2ccsc2C#N)cc1	-1.4	2.8	i	-4.7	0.4	-12.7	-2.7	-0.4
O=C(c1ccncc1)N1c2ccccc2Sc2ccccc21	3.3	10.7	i	8.9	-15.5	-4.9	-8.4	3.5
O=C(Nc1cccc(F)c1)Nc1ccnn1C1CCN(C(=O)c2cscn2)CC1	-7.6	-5.5	i	6.9	-14.7	-0.4	1.7	5.0
CSc1nsc(SCC(=O)N2CCN(c3ccccc3)CC2)n1	nt	0.0	i	4.4	-3.2	-2.1	-2.4	-3.7
CN(C(=O)c1cccc([N+](=O)[O-])c1)c1ccccc1C(=O)NCc1ccccc1	29.4	3.3	i	-10.8	-11.0	0.3	2.8	-16.4
N#CCCN1CCN(C2=NC(=O)/C(=C\c3cccs3)S2)CC1	-4.0	5.4	i	1.5	nt	-1.1	0.1	6.0
CC1CCCCN1C(=O)c1ccc(NC(=O)c2ccccc2Cl)cc1 (stereo not given)	-7.8	8.0	i	-3.1	10.6	0.8	-5.0	-15.2
CC1=C(C(=O)Nc2ccccc2C)C(c2ccc(C)o2)NC(=S)N1 (stereo not given)	nt	3.4	i	-4.6	nt	4.3	5.6	-0.6
Cc1cc([N+](=O)[O-])nn1CC(=O)c1ccccc1	-12.5	3.6	i	0.7	-7.4	0.7	5.8	3.5
Cc1ccc(S(=O)(=O)N2CCOCC2)cc1C(=O)O	-11.3	11.8	i	-2.1	-8.5	2.2	2.6	0.9
O=C(Nc1ccc(C(=O)N2CCN(c3ccc(F)cc3)CC2)cc1)C1=CSCCO1	-11.5	5.9	i	-11.4	3.0	0.3	2.6	-10.8
CCOC(=O)C1(CCOc2ccccc2)CCN(Cc2ccc(COC)o2)CC1	16.0	-9.1	i	-7.5	-17.3	-1.5	-5.2	3.9
CCN(CC)S(=O)(=O)c1ccc(NC(=O)COC(=O)c2cc(S(=O)(=O)Nc3ccc(OC)cc3)ccc2O)cc1	5.3	1.0	i	-10.3	nt	-5.7	-6.3	-13.2
COc1cccc(C2C(C(=O)OCc3ccccc3)=C(C)Nc3ncnn32)c1OC (stereo not given)	-22.3	-3.0	i	-1.0	-9.4	-7.9	-1.2	-12.1
CCOC(=O)c1c(C)[nH]c(C(=O)OCC(=O)Nc2cc(Cl)ccc2OC)c1C	-47.9	-1.0	i	5.0	-13.0	-4.9	-2.7	-6.4
O=C(CSC1=Nc2ccccc2C2CC=NN12)Nc1ccc(F)c(F)c1F (stereo not given)	5.9	nt	nt	nt	-14.6	-2.1	-0.8	-4.9
O=C(COc1ccccc1-c1ccccc1)N/N=C/c1ccc2ccccc2c1	-10.1	11.5	i	-2.6	nt	10.6	-4.7	100.5*
O=C(OCCCOC(=O)c1ccc([N+](=O)[O-])o1)c1ccc([N+](=O)[O-])o1	-14.0	nt	i	nt	3.0	-2.3	-5.6	-7.5
Cc1cccc(N2CCC(N3CCN(C4CCCCC4)C(CCO)C3)CC2)c1C (stereo not given)	20.1	1.4	i	6.2	nt	4.3	-1.5	55.2
COc1ccc(/C=C2\SC(=S)N(CCCC(=O)N3CCN(C)CC3)C2=O)cc1	13.5	-4.5	nt	-7.5	-45.1	1.5	-1.6	30.3
C=CCC[C@H](Cc1ccc(F)cc1)C(=O)OC[C@H](Cc1c[nH]c2ccccc12)NC(=O)[C@H](CC=C)CC(=O)N(CCO)Cc1ccccc1	45.7	nt	nt	nt	-13.0	-22.3	-30.1	nt
Cc1ccccc1NC(=O)CCN1C(=O)CSC1=O	-26.1	-4.0	i	4.9	2.2	2.1	3.0	0.6
CC(=O)Nc1cccc(OCCCNS(=O)(=O)c2ccc(C#N)cc2)c1	20.6	6.2	i	6.8	-12.3	2.0	0.3	-6.8
COc1ccc(NC(=O)CN(c2ccc([N+](=O)[O-])cc2)S(=O)(=O)c2ccccc2)cc1	nt	0.2	i	-11.3	-18.0	0.2	-1.2	33.3
Cc1cccc(OCc2nnc(SCC(=O)Nc3cc(C)on3)n2C)c1	-32.2	1.2	i	-13.4	0.5	-4.5	-2.7	10.0
COc1ccc(C2CC(c3ccc(F)cc3)n3nc(NC(=O)c4ccco4)nc3N2)cc1 (stereo not given)	-2.0	-5.0	i	6.4	nt	2.8	5.5	-0.5
O=C(c1ccc([N+](=O)[O-])s1)N1CCc2ccccc2C1	1.6	13.6	i	-6.2	nt	2.8	0.7	-3.6
CC(C)(C)OC(=O)NCCCCCNC(=O)c1[nH]cnc1C(=O)Nc1ccc(Cl)cc1	46.5	nt	nt	nt	-14.8	-1.0	-14.4	57.9
Cn1c(=O)c(C#N)c(-c2ccc(F)cc2)c2cc(C(=O)c3cc(Cl)cc(Cl)c3O)cnc21	14.4	11.7	i	5.1	-2.2	7.5	-36.2	124.0*
O=C(CN1CCCN(Cc2ccc(F)cc2Cl)C1=O)NCc1ccccc1	nt	-3.3	i	-12.8	-16.2	-0.7	-4.1	-10.3
CCc1sc(C(=O)N2CCN(c3ncccn3)CC2)cc1Br	0.7	5.2	i	-7.2	-2.5	3.8	3.4	0.0
CCc1nnc(NC(=O)c2ccc(S(C)(=O)=O)cc2)s1	-24.9	-6.8	i	0.7	1.5	2.8	5.7	2.4
CC(C)(C)Cc1c(-c2ccco2)nc2ccc(Cl)cn12	1.2	nt	nt	nt	-13.0	1.7	3.2	nt
Cc1[nH]n(C(N)=S)c(=O)c1N=Nc1cccc(C(F)(F)F)c1	-64.0	-1.3	i	-7.8	nt	5.4	-3.1	13.2
CCOC(=O)c1ccc(N2CN(CCc3ccccc3)CNC2=S)cc1	-3.1	-2.0	i	5.2	-10.9	5.1	0.9	-5.9
O=c1cc(CO)oc(C(Nc2ccccn2)c2ccc(F)cc2)c1O (stereo not given)	-93.4	-4.3	i	-0.4	-0.4	-2.9	0.0	-6.9
CC(C)(Cc1cccc(CC(C)(C)C(=O)O)c1)C(=O)O	12.2	-4.4	i	6.2	-0.3	0.3	3.9	12.7
Cn1c(N)c(C(=O)COC(=O)c2cc(-c3ccco3)nc3ccccc23)c(=O)n(C)c1=O	12.3	21.2*	i	?	-18.0	0.9	5.1	nt	PABP FP inh retest=67.8*
CC(Oc1ccc2c3c(c(=O)oc2c1)CCC3)C(=O)NC1CCN(Cc2ccccc2)CC1 (stereo not given)	-15.0	nt	i	nt	-0.4	4.5	-0.9	0.3
CCOC(=O)c1ccc(NC(=O)CCC(=O)OC)cc1	nt	1.1	i	-3.4	nt	2.3	-1.4	-12.9
Cc1cccc2nc3ccccc3nc12	-14.9	11.4	i	-1.8	-14.1	-0.7	2.5	5.7
CC1CCCCC1NC(=O)CCN1C(=O)C2C3C=CC(C3)C2C1=O (stereo not given)	-0.3	2.5	i	14.5	-20.9	2.0	4.7	-6.9
Cc1cc(NC(=O)/C=C/c2ccccc2)c(C(C)C)cc1O	-12.7	30.4	i	-4.7	nt	-4.4	-6.9	-6.2
Cc1ccc(C(=O)Nc2cc(=O)n(C)c(=O)n2C)o1	-10.6	24.3	i	-1.2	-3.8	-2.0	1.7	-8.4
Cc1nn(Cc2ccc(Cl)cc2)c(C)c1NC(=O)c1c(-c2ccccc2)noc1C	-39.7	-0.9	i	-10.0	-1.6	-2.2	3.6	-11.1

3 entries picked at random from the list so far:
SMILES	Env fusion inh	PABP FP inh	Rce1 inh	eIF4H FP inh	UUG fidelity	MT1-MMP act inh	MT1-MMP act inh RFP	CSC inhib	others
O=C(CSC1=Nc2ccccc2C2CC=NN12)Nc1ccc(F)c(F)c1F (stereo not given)	5.9	nt	nt	nt	-14.6	-2.1	-0.8	-4.9
CC1=C(C(=O)Nc2ccccc2C)C(c2ccc(C)o2)NC(=S)N1 (stereo not given)	nt	3.4	i	-4.6	nt	4.3	5.6	-0.6
CCOC(=O)C1(CCOc2ccccc2)CCN(Cc2ccc(COC)o2)CC1	16.0	-9.1	i	-7.5	-17.3	-1.5	-5.2	3.9

(continued)
SMILES	Env fusion inh	PABP FP inh	Rce1 inh	eIF4H FP inh	UUG fidelity	MT1-MMP act inh	MT1-MMP act inh RFP	CSC inhib	others
CN(C)CCN(C(=O)c1cc(Cl)sc1Cl)c1nc2ccc(F)cc2s1	nt	-4.7	i	4.3	-15.4	10.2	6.1	-14.3
CC(C)COc1cccc(C(=O)NNC(=O)C2COc3ccccc3O2)c1 (stereo not given)	1.5	0.4	i	2.8	6.4	6.5	4.2	-0.4
CCCCC(CC)c1nnc(NC(=O)c2cccs2)s1 (stereo not given)	18.4	-1.5	i	-2.3	nt	2.0	-4.8	nt
CCOC(=O)c1cc(-c2ccccc2)n(CCC(=O)N2CCN(c3ccccn3)CC2)c1C	-1.0	6.8	i	-2.2	6.9	-2.2	1.2	22.6
